ID4 binder: binds human ID4 protein on microarray. AID 624137. calls only. small molecule microarray, Flag-ID4 binding, fluorescence F/B. P47928. 31,000 compounds, 1.2% hits;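 active = spot signal over background at p below 0.07 in all four prints; compounds were printed on slides so no solution concentration is given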;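 also: a binder raises fluorescence above local background on the spot; about 2 pmol printed per array spot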
Target sequence (P47928 whole entry, looked up): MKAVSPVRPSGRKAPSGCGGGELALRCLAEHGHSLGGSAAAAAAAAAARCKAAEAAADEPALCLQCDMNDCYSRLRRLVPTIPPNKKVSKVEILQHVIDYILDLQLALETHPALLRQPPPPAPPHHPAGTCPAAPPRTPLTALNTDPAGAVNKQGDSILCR
STAT3 SMM: binds human STAT3 on microarray; P40763; Small molecule microarray, His-STAT3 binding, anti-His fluorescence; calls only; 17,000 compounds, 0.2% hits;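 active = compounds whose four printed spots each show fluorescence over background unusually high for their array block, chance value under 7%; compounds were printed on slides so no solution concentration is given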;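 also: about 2 pmol printed per array spot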
Target sequence (P40763 whole entry, looked up): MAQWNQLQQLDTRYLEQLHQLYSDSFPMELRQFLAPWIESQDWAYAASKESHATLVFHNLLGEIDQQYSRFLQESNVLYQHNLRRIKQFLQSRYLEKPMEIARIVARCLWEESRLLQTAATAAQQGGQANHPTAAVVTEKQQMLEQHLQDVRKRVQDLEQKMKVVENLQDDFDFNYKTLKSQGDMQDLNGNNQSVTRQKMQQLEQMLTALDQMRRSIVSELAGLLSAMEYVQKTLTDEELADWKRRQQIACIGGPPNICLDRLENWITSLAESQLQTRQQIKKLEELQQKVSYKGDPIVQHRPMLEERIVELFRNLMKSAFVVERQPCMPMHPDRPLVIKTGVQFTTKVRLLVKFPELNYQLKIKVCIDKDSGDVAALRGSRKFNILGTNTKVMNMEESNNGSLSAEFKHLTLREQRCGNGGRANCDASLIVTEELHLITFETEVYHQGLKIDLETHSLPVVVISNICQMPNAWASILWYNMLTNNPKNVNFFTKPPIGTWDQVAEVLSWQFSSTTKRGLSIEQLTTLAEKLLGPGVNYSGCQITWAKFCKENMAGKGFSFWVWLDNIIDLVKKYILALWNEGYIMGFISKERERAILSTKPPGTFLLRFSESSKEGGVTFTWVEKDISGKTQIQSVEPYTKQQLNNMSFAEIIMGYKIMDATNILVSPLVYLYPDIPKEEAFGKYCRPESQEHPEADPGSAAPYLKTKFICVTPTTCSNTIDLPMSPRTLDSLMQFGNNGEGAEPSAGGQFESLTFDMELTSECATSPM
mut p53 SMM: mutant p53 (human) binding; small molecule microarray binding, anti-GST fluorescence; calls only; 17,000 compounds, 0.4% hits;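 active = compounds whose four printed spots each glow above background more than chance allows, each with a p-value under 7%; compounds were printed on slides so no solution concentration is given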;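 also: about 2 pmol printed per array spot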
Myc binder: binds human c-Myc on microarray; P01106; small molecule microarray, His-c-Myc binding, anti-His fluorescence; calls only; 17,000 compounds, 1.5% hits; AID 624141;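 active = spot fluorescence over background with P-value below 7% in all four replicate spots, showing protein binding; compounds were printed on slides so no solution concentration is given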;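 also: score is binary with 100 for all four spots passing and 0 otherwise; about 2 pmol printed per array spot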
Calls only; i = inactive; nt = not tested or not shown; + = active, no number.

SMILES | ID4 binder | STAT3 SMM | mut p53 SMM | Myc binder
CNC[C@@H]1OCCCC[C@H](C)Oc2ccc(N)cc2C(=O)N([C@@H](C)CO)C[C@H]1C | i | i | i | i
C[C@@H]1CN([C@H](C)CO)C(=O)CCCn2nncc2CO[C@@H]1CN(C)Cc1ccncc1 | i | i | i | i
CCOC(=O)c1c(C)[nH]c2ccc3c(c12)CN1CCc2cc(OC)ccc2C1O3 (stereo unspecified) | nt | i | i | i
CCO[C@@H]1OC(C(=O)N2CCN(Cc3ccc4c(c3)OCO4)CC2)=C[C@H](C2CCCCC2)[C@H]1CCCO | i | i | i | i
C[C@@H]1CN([C@H](C)CO)C(=O)c2cc(NS(C)(=O)=O)ccc2O[C@@H](C)CCCCO[C@@H]1CN(C)C(=O)CCC(F)(F)F | i | i | i | i
CCOC(=O)c1sc2ncn(CC(=O)Nc3ccc(F)c(Cl)c3)c(=O)c2c1C | i | i | i | i
C[C@@H]1CN([C@@H](C)CO)C(=O)c2cc(NS(=O)(=O)c3ccccc3)ccc2O[C@@H](C)CCCCO[C@@H]1CN(C)C(=O)c1ccccc1 | i | i | i | i
COC(=O)Nc1nc2ccc(Sc3ccccc3)cc2[nH]1 | i | i | i | i
COC(=O)CN(c1cc(Cl)ccc1OC)S(C)(=O)=O | i | i | i | i
C[C@H]1CN([C@@H](C)CO)C(=O)c2cc(NS(=O)(=O)c3cccs3)ccc2O[C@@H]1CN(C)C | i | i | i | i
CC(C)NC(=O)Nc1cccc2c1O[C@@H](CN(C)Cc1ccccc1)[C@@H](C)CN([C@H](C)CO)C2=O | i | i | i | i
C[C@H]1CN([C@@H](C)CO)C(=O)Cc2cc(NS(=O)(=O)c3cn(C)cn3)ccc2O[C@H]1CN(C)S(=O)(=O)c1ccc(Cl)cc1 | i | i | i | i
CNC[C@H]1OCCCC[C@@H](C)Oc2ccc(NC(=O)Nc3ccccc3)cc2C(=O)N([C@H](C)CO)C[C@@H]1C | i | i | i | i
Cc1noc(C)c1S(=O)(=O)N(C)C[C@H]1Oc2ccc(NS(=O)(=O)c3cccs3)cc2CC(=O)N([C@@H](C)CO)C[C@H]1C | i | i | i | i
C[C@@H]1CN([C@@H](C)CO)C(=O)c2cccc(NS(=O)(=O)c3ccc(Cl)cc3)c2O[C@H]1CN(C)C(=O)Nc1ccc(C(F)(F)F)cc1 | i | i | i | i
C[C@H]1CN([C@@H](C)CO)C(=O)c2cc(NC(=O)CCN3CCOCC3)ccc2O[C@H]1CN(C)C(=O)Nc1ccccc1 | i | i | i | i
C[C@@H]1CCCCO[C@@H](CN(C)C(=O)C2CCCCC2)[C@@H](C)CN([C@H](C)CO)C(=O)c2cc(N(C)C)ccc2O1 | i | i | i | i
C[C@H]1[C@H]2OC3=C(C(=O)OC3(C)O)C(=O)[C@]1(C)[C@H]1CCCC[C@]1(O)[C@H]2O (stereo partly specified) | i | i | i | i
C[C@@H]1CN([C@@H](C)CO)C(=O)c2cccc(NC(=O)C3CCOCC3)c2O[C@@H]1CN(C)C | i | i | i | i
C[C@H](CO)N1C[C@H](C)[C@@H](CN(C)Cc2ccncc2)Oc2ccc(NC(=O)Cc3cn(C)c4ccccc34)cc2CC1=O | i | i | i | i
C[C@@H]1CN([C@@H](C)CO)C(=O)c2cc(NC(=O)Nc3ccc4c(c3)OCO4)ccc2O[C@@H](C)CCCCO[C@H]1CN(C)C | i | i | i | i
C[C@@H]1CCCCO[C@@H](CN(C)S(=O)(=O)c2cn(C)cn2)[C@@H](C)CN([C@H](C)CO)C(=O)c2cc(NC(=O)c3ccccc3)ccc2O1 | i | i | i | i
C[C@H](CO)N1C[C@H](C)[C@H](CN(C)C(=O)NC2CCCCC2)Oc2ccc(NS(=O)(=O)c3ccccc3)cc2C1=O | i | i | i | i
CC(C)NC(=O)Nc1ccc2c(c1)CC(=O)N([C@@H](C)CO)C[C@@H](C)[C@@H](CN(C)Cc1ccc(C(=O)O)cc1)O2 | nt | i | i | i
CNC[C@H]1Oc2ccc(NS(=O)(=O)c3cn(C)cn3)cc2CC(=O)N([C@H](C)CO)C[C@@H]1C | i | i | i | i

The list continues.
SMILES | ID4 binder | STAT3 SMM | mut p53 SMM | Myc binder
O=C(CN1C(=O)c2cccc3cccc1c23)Nc1cccnc1 | i | i | i | i
C[C@@H]1CN([C@H](C)CO)C(=O)Cc2cc(N(C)C)ccc2O[C@H]1CN(C)S(=O)(=O)c1cn(C)cn1 | i | i | i | i
CO/N=[N+](\[O-])N(C)CC(C)O (stereo unspecified) | i | i | i | i
OC(CCCN1CCCCC1)(c1ccccc1)c1ccccc1 | i | i | i | i
C[C@@H]1CCCCO[C@H](CN(C)C)[C@H](C)CN([C@H](C)CO)C(=O)c2cc(NS(=O)(=O)c3ccc(Cl)cc3)ccc2O1 | i | i | i | i
CCCCCC[C@H](O)[C@@H]1C[C@@H](O)C2=C(O1)[C@@H](O)CCC2=O | i | i | i | i
C[C@@H]1CCCCO[C@@H](CN(C)S(=O)(=O)c2ccccc2)[C@@H](C)CN([C@@H](C)CO)C(=O)c2cc(NC(=O)C3CCCCC3)ccc2O1 | i | i | i | i
Cc1noc(C)c1NC(=O)N(C)C[C@H]1Oc2ccc(NC(=O)Cn3cnnn3)cc2C(=O)N([C@H](C)CO)C[C@H]1C | i | i | i | i
CCOc1ccc(OCC(=O)Nc2cc(C)c(Cl)cc2OC)cc1 | i | i | i | i
C[C@H](CO)N1C[C@H](C)[C@@H](CN(C)C(=O)Nc2ccccc2F)OCc2cnnn2CCCC1=O | + | i | i | i
C[C@@H]1CCCCO[C@H](CN(C)S(=O)(=O)c2ccccc2)[C@@H](C)CN([C@@H](C)CO)C(=O)c2cc(NS(C)(=O)=O)ccc2O1 | i | i | i | i
O=C(/C=C/c1ccccc1)CC(O)CCc1ccccc1 (stereo unspecified) | i | i | i | i
COc1ccc(S(=O)(=O)Nc2cccc3c2O[C@H](CN(C)S(=O)(=O)c2cccs2)[C@@H](C)CN([C@@H](C)CO)C3=O)cc1 | i | i | i | i
C#Cc1ccc([C@@H]2C=C(C(=O)N3CCOCC3)O[C@H](OCC)[C@H]2CCCO)cc1 | i | i | i | i
O=C1CC(SCc2nc3ccccc3[nH]2)C(=O)N1c1ccc(F)cc1 (stereo unspecified) | i | i | i | i
CC(C)(O)C#Cc1ccccc1C(=O)NC(Cc1c[nH]c2ccccc12)C(=O)O (stereo unspecified) | i | i | i | i
NC(=NCc1ccc(Cl)cc1Cl)NC(=O)c1nc(Cl)c(N)nc1N | nt | i | i | i
C[C@@H]1CCCCO[C@H](CN(C)Cc2ccc(C(=O)O)cc2)[C@H](C)CN([C@@H](C)CO)C(=O)c2cc(NC(=O)c3ccncc3)ccc2O1 | i | i | i | i
CC[C@H](C)C(=O)O[C@H]1CCC=C2C=C[C@H](C)[C@H](CC[C@@H]3C[C@@H](O)CC(=O)O3)[C@H]21 | i | i | i | i
C[C@@H]1CCCCO[C@@H](CN(C)C(=O)NC2CCCCC2)[C@@H](C)CN([C@H](C)CO)C(=O)c2cc(NC(=O)c3ccccc3)ccc2O1 | nt | i | i | i
CC(C)NC(=O)Nc1cccc2c1O[C@H](CN(C)Cc1ccc(C(F)(F)F)cc1)[C@H](C)CN([C@H](C)CO)C2=O | i | i | i | i
COc1cccc(NC(=O)c2cc([N+](=O)[O-])ccc2NC(=O)CN2CCCCCC2)c1 | i | i | i | i
COc1ccc(C#Cc2ccc3c(c2)[C@]2(C(=O)N3)[C@H](c3ccc(OCCO)cc3)N3[C@H](c4ccccc4)[C@H](c4ccccc4)OC(=O)[C@H]3[C@@H]2C(=O)N2CCN(c3ncccn3)CC2)cc1 | i | i | i | i
COC(=O)c1cc(C(=O)OC)cc(-n2c(C)cc(C(=O)CSc3nc(C)cc(C)c3C#N)c2C)c1 | i | i | i | i
C[C@H]1CCCCO[C@@H](CN(C)S(=O)(=O)c2ccccc2)[C@@H](C)CN([C@@H](C)CO)C(=O)c2cc(NC(=O)Cc3ccccc3)ccc2O1 | i | i | i | i

Two records picked at random from those above:
SMILES | ID4 binder | STAT3 SMM | mut p53 SMM | Myc binder
C[C@H]1CN([C@@H](C)CO)C(=O)Cc2cc(NS(=O)(=O)c3cn(C)cn3)ccc2O[C@H]1CN(C)S(=O)(=O)c1ccc(Cl)cc1 | i | i | i | i
C[C@@H]1CN([C@@H](C)CO)C(=O)c2cccc(NS(=O)(=O)c3ccc(Cl)cc3)c2O[C@H]1CN(C)C(=O)Nc1ccc(C(F)(F)F)cc1 | i | i | i | i

Other results:
SMILES | ID4 binder | STAT3 SMM | mut p53 SMM | Myc binder
O=C(COc1ccc(F)cc1)Nc1sc2c(c1C(=O)NC1CCS(=O)(=O)C1)CCCC2 (stereo unspecified) | i | i | i | i
Cn1c(=O)c2c(nc(N3CCOCC3)n2CCCN)n(C)c1=O | + | i | i | i
C[C@H](CO)N1C[C@H](C)[C@@H](CN(C)C(=O)Cc2ccccc2)OCCCC[C@H](C)Oc2ccc(NC(=O)Nc3ccccc3)cc2C1=O | i | i | i | i
CC(C)NC(=O)Nc1ccc2c(c1)C(=O)N([C@H](C)CO)C[C@H](C)[C@H](CN(C)C(=O)Nc1ccc(F)cc1)OCCCC[C@@H](C)O2 | nt | i | i | i
CC(C)(C)c1ccc(C(=O)Nc2nonc2-c2nc3ccccc3[nH]2)cc1 | i | i | i | i
CC(C)N(CCC#N)S(=O)(=O)c1ccccc1[N+](=O)[O-] | i | i | i | i
O=C1c2ccccc2C(=O)N1Cc1nc(-c2ccccn2)no1 | i | i | i | i
O=C1O[C@@H](c2ccccc2)[C@@H](c2ccccc2)N2[C@@H](c3ccccc3OCCO)[C@]3(C(=O)Nc4ccccc43)[C@@H](C(=O)NC[C@H](O)c3ccccc3)[C@H]12 | i | i | i | i
C[C@@H]1CN([C@@H](C)CO)C(=O)CCCn2nncc2CO[C@@H]1CN(C)Cc1ccc2c(c1)OCCN2C | i | i | i | i
C[C@@H]1CN([C@@H](C)CO)C(=O)c2cc(NC(=O)Nc3ccc(C(F)(F)F)cc3)ccc2O[C@@H]1CN(C)Cc1ccc(C(F)(F)F)cc1 | nt | i | i | i
CNC[C@@H]1OCCCC[C@@H](C)Oc2ccc(NS(=O)(=O)c3cccs3)cc2C(=O)N([C@H](C)CO)C[C@H]1C | i | i | i | i
O=C1O[C@H](c2ccccc2)[C@H](c2ccccc2)N2[C@H]1[C@@H](C(=O)O)[C@]1(C(=O)Nc3ccccc31)[C@H]2c1ccccc1OCCO | i | i | i | i
O=S(=O)(c1ccc2ccccc2c1)N1CCN(Cc2ccc(OCCO)cc2)CC1 | i | i | i | i
Cc1noc(C)c1S(=O)(=O)N(C)C[C@@H]1OCCCC[C@H](C)Oc2ccc(NC(=O)NC(C)C)cc2C(=O)N([C@@H](C)CO)C[C@H]1C | i | i | i | i
CC(C)NC(=O)Nc1ccc2c(c1)C(=O)N([C@H](C)CO)C[C@H](C)[C@H](CN(C)C(=O)Nc1ccc3c(c1)OCO3)OCCCC[C@H](C)O2 | i | i | i | i
Cc1noc(C)c1NC(=O)Nc1cccc2c1O[C@@H](CN(C)C(=O)NC1CCCCC1)[C@H](C)CN([C@H](C)CO)C2=O | i | i | i | i
COc1cc(C(=O)Oc2ccccc2NC2=NS(=O)(=O)c3ccccc32)cc(OC)c1OC | i | i | i | i
C[C@H](CO)N1C[C@H](C)[C@@H](CN(C)C)Oc2ccc(NC(=O)NC3CCCCC3)cc2C1=O | i | i | i | i
C[C@H](CO)N1C[C@H](C)[C@@H](CN(C)Cc2ccc3c(c2)OCO3)OCc2cn(nn2)CCCC1=O | i | i | i | i
C[C@@H]1CN([C@H](C)CO)C(=O)c2cccc(NC(=O)Nc3cccc4ccccc34)c2O[C@@H]1CN(C)C(=O)NC1CCCCC1 | i | i | i | i
CC1=CCC[C@@H]2[C@@](C)(CCc3ccoc3)[C@H](C(=O)O)CC[C@@]12C | nt | i | i | i
O=C(O)Cc1ccc(NC(=O)CN2C(=O)c3ccccc3C2=O)cc1 | i | i | i | i
CNC[C@H]1Oc2ccc(NS(C)(=O)=O)cc2C(=O)N([C@H](C)CO)C[C@@H]1C | + | i | i | i
C[C@@H]1CN([C@H](C)CO)C(=O)c2cccc(NS(=O)(=O)c3cccs3)c2O[C@H]1CN(C)Cc1ccc(Oc2ccccc2)cc1 | i | i | i | i
C[C@H](CO)N1C[C@H](C)[C@@H](CN(C)Cc2ccncc2)Oc2ccc(NC(=O)NC3CCCCC3)cc2C1=O | i | i | i | i
COc1ccc(S(=O)(=O)Nc2ccc3c(c2)CC(=O)N([C@@H](C)CO)C[C@@H](C)[C@@H](CN(C)S(=O)(=O)c2ccc(OC)cc2)O3)cc1 | i | i | i | i
C=CCOC(=O)C1=C[C@H](c2csc3ccccc23)C[C@H](OCc2ccc(CO)cc2)O1 | i | i | i | i

No new results follow: entries from further up.
SMILES | ID4 binder | STAT3 SMM | mut p53 SMM | Myc binder
C[C@H](CO)N1C[C@H](C)[C@@H](CN(C)C)Oc2ccc(NC(=O)NC3CCCCC3)cc2C1=O | i | i | i | i
C[C@H](CO)N1C[C@H](C)[C@@H](CN(C)Cc2ccc3c(c2)OCO3)OCc2cn(nn2)CCCC1=O | i | i | i | i
C[C@@H]1CN([C@H](C)CO)C(=O)c2cccc(NC(=O)Nc3cccc4ccccc34)c2O[C@@H]1CN(C)C(=O)NC1CCCCC1 | i | i | i | i
CC1=CCC[C@@H]2[C@@](C)(CCc3ccoc3)[C@H](C(=O)O)CC[C@@]12C | nt | i | i | i
O=C(O)Cc1ccc(NC(=O)CN2C(=O)c3ccccc3C2=O)cc1 | i | i | i | i

From PubChem BioAssay

These rows are one share of the data. The share of hits here may be higher or lower than overall.
